Vaccinia Venus: vaccinia inhibition (Venus reporter). 330,000 compounds, 0.46% hits. Potency, µM (titrated, usually from 36.5 µM), without a hit: top-dose activity change, negative = inhibition, hits mostly inhibitors. Vaccinia virus Venus reporter expression, fluorescence; active means well fitted inhibition curve with a large enough effect; inconclusive means small, poorly fitted or top-dose-only effect; inactive means no such curve, though single readings can be large or run the other way; tested in A549 cells; note: nearly all actives have a fitted effect of over 30% in size; inactives centre near -10
Vaccinia mCherry: inhibitors of vaccinia virus infection (mCherry reporter signal); Vaccinia virus mCherry reporter infection, fluorescence; about a quarter of the inactives have no number; Potency, µM (highest dose often 36.5 µM), for inactives: top-dose activity change, negative = inhibition, actives largely listed as inhibitors; 310,000 compounds, 0.63% hits; AID 720579; active = well fitted inhibition curve with a large enough effect; inconclusive = small, poorly fitted or top-dose-only effect; inactive = no such curve, though single readings can be large or run the other way; tested in A549 cells; note: nearly all actives have a fitted effect of over 35% in size; inactives centre near -10
* hit, by the source's call; i = inactive; ? = inconclusive; nt = not tested or not shown; & = joins results of further samples; [ ] = remark or other dose. % is set by controls: 0 for no effect and ±100 for the full control effect; potency is the fitted concentration of half-maximal effect.

Sequence of screens – Vaccinia Venus	Vaccinia mCherry
#1 COc1cc(OC)cc(-n2nnnc2SCC(=O)Nc2ccc(C(C)=O)cc2)c1
  -17%	i
#2 CC(=O)c1cc(C(=O)Nc2ccc(C(=O)O)cc2)oc1C
  -11%	-13%
#3 C[C@H](CO)N1C[C@H](C)[C@@H](CN(C)Cc2cccc(C(=O)O)c2)OCc2cnnn2CCCC1=O
  -9%	?
#4 Cc1ccc(S(=O)(=O)N2CCN(c3ccccn3)CC2)cc1
  21%	i
#5 COc1ccc(NS(=O)(=O)c2cccc(C(=O)N/N=C/c3cccs3)c2)cc1
  -13%	-28%
#6 O=C(Nc1cccc(S(=O)(=O)N2CCOCC2)c1)c1c2c(nc3ccccc13)CCC2
  -12%	i
#7 CC(C)C(N)c1csc(NC(=O)Nc2ccc(OC(F)(F)F)cc2)n1 (stereo not drawn)
  -17%	-30%
#8 Cc1ccn2c(=O)c(NC(=O)c3cccc4ccccc34)c(C)nc2c1
  -11%	i
#9 CCc1ccc(CNC(=O)Cn2nc(-c3ccc(Cl)cc3)ccc2=O)cc1
  -10%	-11%
#10 CC(=O)c1cccc(N(CC(=O)NCCc2ccccc2)C(=O)c2csnn2)c1
  -3%	-24%
#11 CC(OC(=O)c1ccc(O)cc1)C(=O)Nc1cc(C(F)(F)F)ccc1Cl (stereo not drawn)
  -19%	0%
#12 Cc1ccccc1-c1nnc(C2CCN(S(=O)(=O)c3ccc(Cl)cc3)CC2)o1
  -14%	-2%
#13 Cc1nnc(NCc2ccccc2)c2ccccc12
  -10%	-9%
#14 CC(=O)N(c1cccc(C)c1)C1SC(=O)N(c2ccccc2)C1=O (stereo not drawn)
  7%	nt
#15 Clc1ccc(C2=NCCn3nc4ccccc4c32)cc1
  -26%	?
#16 CNCC(O)Cn1c(C(F)(F)F)nc2ccccc21 (stereo not drawn)
  -10%	i
#17 COc1cc2c(cc1OC)-c1cc(NC3CC3)nc(=O)n1CC2
  -5%	nt
#18 Nc1ncnc(Nc2cc(Cl)cc(Cl)c2)c1[N+](=O)[O-]
  -9%	-18%
#19 Cc1ccc(C(=O)Cn2ncsc2=N)cc1
  -7%	?
#20 C/C(=N\NC(=O)c1ccc(N/N=C(\C)c2ccncc2)cc1)c1ccncc1
  -13%	-16%
#21 CC(c1nc2ccccc2[nH]1)n1c(=O)c(-c2ccco2)nc2ccccc21 (stereo not drawn)
  0%	-6%
#22 N#C/C(=C(/O)COC(=O)CCc1ccc(S(=O)(=O)N2CCOCC2)cc1)c1nc2ccccc2[nH]1
  1%	-13%
#23 Cc1cccc(NC(=O)C2CC(=O)OC23CCCC3)c1 (stereo not drawn)
  -3%	i
#24 CCN(CC)CCCNC(=O)CNC(=S)N(CCCN1CCOCC1)Cc1cccs1
  -8%	-6%
#25 CC(=O)N(C1CC(C)C(C#N)(C#N)C1(C#N)C#N)N(C)C (stereo not drawn)
  -12%	?
#26 Cc1ccc(CS(=O)Cc2ccc(C(=O)NCc3ccc(OC(C)C)cc3)o2)cc1 (stereo not drawn)
  -9%	i
#27 CC(=O)NC1C(Oc2cccc(C)c2)OC2COC(c3ccco3)OC2C1O (stereo not drawn)
  -2%	-9%
#28 CCc1cccc(C)c1NC(=O)C(c1ccc(O)cc1)N1CCC1=O (stereo not drawn)
  -9%	i
#29 CCc1nc2c(OCc3ccccc3C)cccn2c1N(C)C(=O)C(C)C
  -2%	0%
#30 Fc1ccccc1N1CCN(c2ncnc3nc[nH]c23)CC1
  -8%	0%
#31 Cc1nn(CC(=O)Nc2cccc(C(F)(F)F)c2)c(=O)c2nn(-c3ccccc3)c(C)c12
  1%	-2%
#32 O=C(Nc1ccc(Br)cn1)c1cnn2c1NC(=C1CC1)C=C2C(F)F
  -27%	-22%
#33 CC(=O)NC(=S)NNC(=O)C(c1ccccc1)c1ccccc1
  ?	?
#34 O=C(Nc1ccc(Cl)cc1)C1=Cc2cc(Cl)ccc2OC1
  ?	-20%[1.46 µM]
#35 O=C(Nc1ccc(Br)cc1C(=O)O)c1ccc2c(c1)C(=O)N(Cc1ccccc1)C2=O
  -10%	i
#36 COc1ccc(-c2cc3c(nn2)-c2ccccc2C3=O)cc1
  2%	-3%
#37 CC(C)N(C(=O)Cn1c(SCC(=O)N2CCN(c3ccccc3)CC2)nc2ccccc21)C(C)C
  -5%	-9%
#38 CCOC(=O)c1ccc(NC(=O)C2COc3ccccc3O2)cc1 (stereo not drawn)
  -3%	-10%
#39 CC(OC(=O)CN1C(=O)NC2(CCCC2)C1=O)C(=O)Nc1cccc(Cl)c1 (stereo not drawn)
  -3%	-3%
#40 CC1OC(OC2C(CO)OC(OCC3OC(OC(=O)[C@@]45CCC(C)(C)C[C@@H]4C4=CC[C@@H]6[C@@]7(C)CCC(OC8OCC(O)C(O)C8OC8OC(C)C(O)C(O)C8O)[C@@](C)(CO)C7CC[C@@]6(C)[C@]4(C)CC5)C(O)C(O)C3O)C(O)C2O)C(O)C(O)C1O (stereo partly drawn)
  -11%	-4%
#41 Cc1ccc(S(=O)(=O)N2CC=C(c3c(C)n(C)c4ccccc34)CC2)cc1
  14%	8%
#42 Cc1c(C(=O)NCc2ccc(C(C)C)cc2)sc(=O)n1Cc1cccc(F)c1
  -2%	-3%
#43 CCOC(CNC(=O)c1cccn2c(=O)c3cc(Cl)ccc3nc12)OCC
  -3%	-14%
#44 COc1ccc(NC2CCCN(C(=O)CN3C(=O)c4ccccc4C3=O)C2)cc1OC (stereo not drawn)
  -1%	-14%
#45 O=C(Cc1ccccc1[N+](=O)[O-])NCCCc1ccccc1
  -8%	i
#46 O=c1cnnc(Nc2ccccc2)[nH]1
  -5%	-28%
#47 Cc1c(F)cccc1NS(=O)(=O)c1ccc2c(c1)n(C)c(=O)c(=O)n2C
  -11%	i
#48 COc1ccc(Cl)cc1NC(=O)c1cc(C)nc2c1c(C)nn2-c1ccccc1
  -11%	-6%
#49 Cc1ccc2scc(N3CCC(C)CC3)c(=O)c2c1
  -12%	-12%
#50 CCNC(=O)N(CC)C[C@H]1N[C@@](C)(C(=O)OC)[C@H]2C(=O)N(Cc3ccccc3)C(=O)[C@@H]12
  -8%	i

Next compounds.
Sequence of screens – Vaccinia Venus	Vaccinia mCherry
#51 Cc1ccc2cc(/C=N/Nc3nc4ccccc4[nH]3)c(Cl)nc2c1
  -2%	i
#52 Cc1ccc(C(=O)O/N=C(\N)c2ccccn2)c(C)c1
  -22%	-15%
#53 Cc1cc(-c2csc3nc[nH]c(=S)c23)cc(C)c1C
  ?	?
#54 CC(=O)Nc1cc(C)nn1-c1nc(C)cc(C)n1
  -13%	-5%
#55 COC(=O)CCCc1nc2ccccc2s1
  -11%	-18%
#56 C1=CC2(C=C1)OC21CCC2(C=CC3(C2)OC3C2CCCCC2)CC1 (stereo not drawn)
  -13%	-2%
#57 CC(C)C(=O)N1CCC2(CC1)Oc1ccc(F)cc1C(=O)C21CC(c2ccccc2)=NO1 (stereo not drawn)
  -21%	-9%
#58 Cc1cccc2c1N1C(=O)c3c(C(=O)O)cccc3C1CC2C (stereo not drawn)
  -4%	i
#59 C#CCN(C[C@@H]1[C@@H](OC(=O)NCc2ccccc2)[C@@H](OC(=O)NCc2ccccc2)CN(C(=O)OC(C)C)N1C(=O)OC(C)C)S(=O)(=O)c1ccc(C)cc1
  -14%	i
#60 CCOc1ccc(CCNC(=O)Cn2nc(C)c3c(C)n(-c4ccccc4)nc3c2=O)cc1
  -8%	i
#61 Cc1[nH]nc2c1C(c1ccc(-c3ccc(Cl)cc3)o1)C(C#N)=C(N)O2 (stereo not drawn)
  -6%	-11%
#62 COc1ccccc1Nc1nc(-c2sc(NC(=O)CC(C)C)nc2C)cs1
  ?	?
#63 Cc1c2cnn(-c3ccccc3)c(=O)c2c(C)n1CCCC(=O)Nc1cccc(F)c1
  -1%	-12%
#64 CCCn1nnnc1NC(=O)CSc1ccc(Cl)cc1
  -8%	i
#65 CCCCNC(=O)CCn1nc(-c2ccc(Cl)cc2)c2ccccc2c1=O
  -22%&-13%	-10%
#66 C(=C\c1ccccc1)/CN1CCN(C(c2cccs2)c2nnnn2Cc2ccccc2)CC1 (stereo not drawn)
  -6%	-9%
#67 CN(Cc1ccccc1)C(=O)CN1C(=O)CSc2ccc(S(=O)(=O)N3CCOCC3)cc21
  -5%	-11%
#68 CSc1ccc(/C=N/N2CCN(c3ccccc3)CC2)cc1
  -15%	i
#69 CC(=O)Nc1ccc(S(=O)(=O)N2CCC(C(N)=O)(N3CCCCC3)CC2)cc1
  -23%	-13%
#70 CCN1CCN(c2nc(N(C)c3ccccc3)nc(N)c2[N+](=O)[O-])CC1
  -10%	i
#71 CCOc1ccc(C(=O)NCCn2cc(SCC(=O)Nc3ccccc3)c3ccccc32)cc1
  -26%	-28%
#72 OC1(c2ccc(OC(F)F)cc2)CSC(=Nc2cccnc2)N1C1CC1 (stereo not drawn)
  ?	-18%
#73 CC(C)c1ccc(NC(=O)N2CCCC2C(=O)Nc2ccc(-n3cnnn3)cc2)cc1 (stereo not drawn)
  -21%	i
#74 CCc1nn2c(=O)c(S(=O)(=O)Nc3ccc(Br)cc3F)c(C)nc2s1
  -10%	-11%
#75 COc1ccc(Cl)cc1C(=O)O/N=C(\N)c1ccncc1
  -6%	-4%
#76 Cc1ccc(C(=O)Nc2c(C)nc3ccccn3c2=O)cc1C
  -11%	-15%
#77 COc1ccccc1N1CCN(C(=O)C2CC2)CC1
  1%[7.34 µM]	i[7.34 µM]
#78 CC(=O)Nc1ccc(NS(=O)(=O)c2ccc(OC(C)C(=O)N3CCOCC3)cc2)cc1 (stereo not drawn)
  -2%	-7%
#79 Cc1noc(-c2ccc(Cl)cc2)c1C(=O)O/N=C(\N)c1ccc(C(C)(C)C)cc1
  -9%	-11%
#80 COc1cc(/C=C/C(=O)OCC(=O)Nc2ccccc2Cl)cc(OC)c1OC
  -9%	-5%
#81 COCCCN1C(=O)c2ccc(C(=O)NCCc3ccccc3)cc2C1=O
  0%	1%
#82 CN(C[C@H](Cc1ccccc1)N(C[C@H](c1ccccc1)N(CCc1ccccc1)N=O)N=O)N=O
  -22%	i
#83 COc1ccc(C(C)=O)cc1CSc1nc2ccccc2o1
  -9%	nt
#84 CCc1ccc(NC(=O)N(Cc2c[nH]c3ccccc23)C2CCCCCC2)cc1
  -15%	-16%
#85 CCC(C)(C(=O)NC1CCCC1)N(Cc1cccs1)C(=O)c1ccccn1 (stereo not drawn)
  -6%	?
#86 CCOc1ccc(N2CC(O)=C(c3nc4ccccc4c(=O)[nH]3)C2=N)cc1
  6%	-13%
#87 O=C(NC1CCCC1)N[C@@H]1C=C[C@@H](CC(=O)N2CCOCC2)O[C@@H]1CO
  2%	2%
#88 O=C(Nc1ccccc1C(=O)OCc1cc(=O)n2ccsc2n1)c1ccc(Cl)cc1
  -10%	-17%
#89 O=C(NCC1CC1)NC(=O)c1ccccc1F
  5%	5%
#90 CCOC(=O)c1c(NC(C)=O)sc2c(O)c(CN3CCN(CC)CC3)ccc12
  -16%	-18%
#91 CCOc1ccccc1NC(=O)CSc1nc2c(oc3ccccc32)c(=O)n1-c1ccc(C)c(C)c1
  4%	0%
#92 O=C(Nc1ccccc1F)c1ccc(C(=O)c2ccccc2)cc1
  -17%	-16%
#93 Cc1cc(C)n2nc(C(=O)OCC(=O)Nc3ccc4c(c3)OC(F)(F)O4)nc2n1
  -16%	nt
#94 COc1ccc(C(=O)NC(=S)NCc2cccnc2)cc1[N+](=O)[O-]
  -12%	-13%
#95 COc1ccc2[nH]c(=O)c(CNc3ccc(C)cc3C)cc2c1
  -12%	-1%
#96 CCOc1ccccc1C(=O)N(Cc1cc(OC)c(OC)c(OC)c1)C1CCS(=O)(=O)C1 (stereo not drawn)
  -7%	-2%
#97 C/C(CC(=O)Nc1ccc(C)c(Cl)c1)=N\NC(=O)c1ccccn1
  -8%	-7%
#98 Cc1ccc(NC(=O)Cn2nc3c(cc2=O)CCCC3)cc1Cl
  -7%	-9%
#99 O=Cc1cn(Cc2ccc(F)cc2)c2ccccc12
  -22%	-9%
#100 CCCc1c(C(=O)OCC)sc(N)c1C#N
  -9%	i

Continued:
Sequence of screens – Vaccinia Venus	Vaccinia mCherry
#101 O=C(CN1CCN(c2ccc(O)cc2)CC1)Nc1cc(S(=O)(=O)N2CCCCC2)ccc1Cl
  -6%	-16%
#102 CC(C(=O)OCC(=O)Nc1ccc2c(c1)OCO2)N1C(=O)c2ccccc2C1=O (stereo not drawn)
  -4%	nt
#103 CCOc1ccccc1NC(=O)CNS(=O)(=O)c1ccc2nc(C)sc2c1
  -6%	-1%
#104 CCOC(=O)c1[nH]c2c(c1C)C(=O)CC(c1ccco1)C2 (stereo not drawn)
  ?	?
#105 CCc1cc(C(=O)Nc2ccc(S(=O)(=O)NC3=NCCCCC3)cc2)sc1C
  -2%	-11%
#106 COC(=O)C1=C(c2ccc(F)cc2F)C[C@@H]2CC[C@H]1N2C(=O)NC1CC1
  -7%	i
#107 CCNC(=O)C1(C)CCN(C(=O)c2ccccc2F)C1 (stereo not drawn)
  -2%	9%

Bioassay records from PubChem.
